Screening results deposited in PubChem BioAssay by several laboratories.
LANA-H2A inh: blocks KSHV LANA binding to histone H2A/H2B. Q9QR71. cell-free LANA-H2A/H2B peptide, fluorescence polarization. inhibition, % (concentration not given with the values). hit rate 0.6% among 320,000. AID 2629; in the data active = inhibition mostly above about 10%, no sharp cut-off; inactive = mostly below about 6.7%;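 note: stock transfer was 7.5 nL into about 10 µL; 0% = median of vehicle wells and 100% = median of positive control wells; one replicate is shown; the record names a cut of 25% in any replicate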
HNF4A DNA FP: change in binding of human HNF4 alpha to DNA | activity change, % at 10 µM | hit rate 0.3% among 360,000 | HNF4a-FITC DNA binding, fluorescence polarization, 1 h; in the data active = activity change above about 30%, passing the limit was not always enough;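 note: controls were the assay level and a saturating level of protein; the project sought stronger binding though the title names inhibitors; some compounds called inactive have numbers as strong as hits; positive values seem to mean higher polarization but the record does not say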
Target sequence (P41235 whole entry, looked up): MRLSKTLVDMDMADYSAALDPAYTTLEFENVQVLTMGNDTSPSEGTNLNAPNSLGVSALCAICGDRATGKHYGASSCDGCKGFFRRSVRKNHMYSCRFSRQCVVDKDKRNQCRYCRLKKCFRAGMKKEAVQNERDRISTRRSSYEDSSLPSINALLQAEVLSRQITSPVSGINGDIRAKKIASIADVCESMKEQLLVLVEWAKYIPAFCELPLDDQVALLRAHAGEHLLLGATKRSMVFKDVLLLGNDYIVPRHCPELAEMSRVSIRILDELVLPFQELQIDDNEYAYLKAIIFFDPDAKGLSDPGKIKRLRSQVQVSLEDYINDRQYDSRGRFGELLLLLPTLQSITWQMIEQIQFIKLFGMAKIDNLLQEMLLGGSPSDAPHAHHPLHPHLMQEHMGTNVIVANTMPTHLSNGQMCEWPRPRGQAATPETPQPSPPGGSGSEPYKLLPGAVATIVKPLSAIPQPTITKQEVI
Vif A3G: HIV-1 Vif–A3G interaction blockers – biochemical, TR-FRET, GST-Vif 1-94, biotin-A3G peptide, dose response retest, primary screen (AID 1117319) | inhibition, %; hits with a dose series show IC50 in µM | TR-FRET GST-Vif / biotin-A3G peptide binding; higher % means a stronger effect; test concentration not given here; strong numbers were not always called active | hit rate 0.57% among 260,000;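 active = above the screen mean plus three standard deviations and confirmed in dose response; inconclusive = results disagree or hit not tested in dose response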;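 note: Vif residues 1-94 fused to GST binding biotinylated APOBEC3G peptide 110-148; 0% = full assay without inhibitor and 100% = GST in place of GST-Vif; retest series ran down from 100 µM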
A1 inh: inhibitors of the anti-apoptotic protein A1, read as caspase activation. caspase activation, % (no concentration beside the values). MEF A1-2A-BIM cells, Caspase-Glo 3/7 luminescence, 3 h; percent of clofoctol response, vehicle zero. hit rate 0.066% among 330,000;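 active = over half of replicate activation scores above 10%, or exactly half above 10 with the replicate mean above 10; inconclusive = replicate mean below 10 yet half the replicates above 10; inactive = over half of replicates below 10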;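 note: wells of about 30 µL received 50 nL stock; many hits fall short of the cut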
UCH37 inh: inhibitors of human deubiquitinating enzyme UCH37. hit rate 0.33% among 330,000. purified proteasome/UCH37, Ub-AMC cleavage fluorescence. inhibition, % (no concentration beside the values);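 active = mean of two replicates above 20%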;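 note: 0% = compound-free wells with enzyme and 100% = wells lacking proteasome; stock transfer was 100 nL into about 20 µL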
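Test system – human UCH37 enzyme supplied as purified proteasome complex · Incubation – 30 min preincubation with enzyme, 25 min cleavage at room temperature · Detection – AMC fluorescence from Ub-AMC cleavage, excitation 355 nm, emission 460 nm · Benchmarks – no-proteasome wells (full inhibition) and compound-free wells (no inhibition)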
B2AR ag: activates human beta-2 adrenergic receptor causing internalization. P07550. hit rate 0.43% among 340,000. response, % (concentration not given with the values). Am2.2-beta2AR cells, FAP receptor internalization, flow cytometry; reference of the scale not given here;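 active = response above a set limit, near 3 SD of response in nonfluorescent compounds, cut at about 42% in these data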;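 note: stock transfer was 100 nL into about 11 µL; a reference agonist was the positive control; negative values mostly stem from fluorescent compounds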
Target sequence (P07550 whole entry, looked up): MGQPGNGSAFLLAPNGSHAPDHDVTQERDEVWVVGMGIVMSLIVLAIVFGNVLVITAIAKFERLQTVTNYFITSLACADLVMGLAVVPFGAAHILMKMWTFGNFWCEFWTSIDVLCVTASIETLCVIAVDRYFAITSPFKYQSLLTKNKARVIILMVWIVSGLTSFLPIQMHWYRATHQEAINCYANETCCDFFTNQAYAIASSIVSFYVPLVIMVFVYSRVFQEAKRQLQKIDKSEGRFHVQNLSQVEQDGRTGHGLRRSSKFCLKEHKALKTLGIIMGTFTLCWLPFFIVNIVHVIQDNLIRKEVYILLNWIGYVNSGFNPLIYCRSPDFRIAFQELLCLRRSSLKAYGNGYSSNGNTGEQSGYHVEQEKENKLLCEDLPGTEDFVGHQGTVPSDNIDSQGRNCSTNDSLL
Ecoli growth: E. coli growth inhibition; Escherichia coli growth, OD600, 23 h; stronger effect = lower value; OD600 absorbance (test concentration not listed); hit rate 0.21% among 330,000;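 active = OD600 absorbance below the run mean of sample wells minus 3.6 SD, in any replicate, cut at about 0.56 in these data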;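 note: stock transfer was 300 nL into about 60 µL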
* hit, by the source's call; ? = inconclusive; / = no result given; & = joins results of further samples. Compounds were not picked by outcome; overall some 2.1% were active at least once.

SMILES	LANA-H2A inh	HNF4A DNA FP	Vif A3G	A1 inh	UCH37 inh	B2AR ag	Ecoli growth
Cc1ccccc1-c1nnc(SCC(=O)Nc2c(C)n(C)n(-c3ccccc3)c2=O)o1	-1.3	2.0	/	0.6	-0.4	-2	0.71
O=C(CSc1nnc(NC(=O)c2cccc(F)c2)s1)NC1CCCC1	0.4	-2.1	/	-2.5	-7.8	1	0.71
O=C(Nc1nnc(C2CC2)s1)c1cccs1	2.0	0.9	0%	-5.2	4.2	-2	0.69
C=CCc1cc(/C=C2/NC(=O)N(CC)C2=O)cc(OCC)c1OCc1ccc(C(=O)O)cc1	-0.3	-0.9	/	0.4	-0.6	14	0.68
Nn1c(SCC(=O)Nc2ccc3c(c2)OCCO3)nnc1-c1ccccn1	-1.3	0.8	4%	-0.3	0.2	-12	0.67
CSC1=C(C#N)C(c2ccccc2Cl)C(C(C)=O)=C(C)N1 (stereo unspecified)	-5.5	1.6	-7%	0.6	-6.9	-3	0.65
O=C(NCCc1ccccc1F)C1CCCN1S(=O)(=O)c1ccc2ccccc2c1 (stereo unspecified)	2.6	3.0	?	0.7	-2.1	-12	0.68
CCS(=O)(=O)N1CCC(C(=O)NCc2ccc(F)cc2)CC1	6.8	-2.9	21%	0.0	1.1	-3	0.69
Cc1cccc(NC2(C(=O)O)CCCC2)c1	/	5.0	7%	/	2.1	-15	0.7
Cc1cc(C)cc(N(CC(=O)Nc2ccccc2C(=O)N2CCOCC2)S(C)(=O)=O)c1	0.9	0.5	5%	-0.1	0.8	-5	0.7
NC(=O)c1ccc(NC(=O)CSc2nnc(-c3ccc4c(c3)OCO4)o2)cc1	-5.0	0.2	-4%	0.1	-1.4	1	0.74
O=C1CSC(=S)N1c1cccc(Cl)c1	-10	0.0	2%	-0.3	5.0	15	0.67
CCC(C)NC(=O)c1ccc(CSCc2cccc(F)c2)o1 (stereo unspecified)	-0.9	2.7	4%	0.6	0.5	10	0.72
COc1cc(OC)cc(-c2c(C#Cc3ccsc3)c3cc(-c4cnc(OC)nc4)ccc3n2C)c1	2.8	-0.1	/	-1.4	2.1	1	0.82
Cc1cccc(N2C(=O)C(O)=C(C(=O)c3cccs3)C2c2ccc(Cl)cc2)n1 (stereo unspecified)	-2.8	0.5	-38%	1.1	8.2	-1	0.71
O=c1[nH]c2cc3c(cc2cc1C(c1nnnn1Cc1ccccc1)N1CCCc2ccccc21)OCO3 (stereo unspecified)	5.8	/	?	0.4	-15	/	0.71
Cc1ccc(S(=O)(=O)NC2=NCN(C3CCN(Cc4ccccc4)CC3)CN2)cc1	-0.7	-0.7	4%	0.6	2.5	-3	0.65
CC(=O)c1cc2c(cc1NC(=O)CN1Cc3ccccc3C1=O)OCO2	0.9	0.2	-2%	-1.2	-15	-7	0.68
Cc1ccc(C(=O)NC2CCN(Cc3ccccc3)CC2)cc1S(=O)(=O)N1CCOCC1	13	-2.1	4%	-0.7	-0.2	-4	0.71
COc1cccc(CN(C)C(=O)CCNC(=O)c2ccco2)c1	3.8	2.3	/	0.3	1.4	-5	0.68
CCCCN=C(C)c1c(O)c2ccccc2oc1=O	-0.1	-2.5	?	-1.0	5.4	-27	0.72
CCOC(=O)c1c(C)[nH]c(C(=O)COC(=O)c2ccc(O)cc2)c1C	/	-3.3	7%	/	0.7	5	0.68
CCO[C@@H]1OC(C(=O)NCc2ccccc2)=C[C@H](c2coc3ccccc3c2=O)[C@H]1CCCO	-8.4	2.9	6%	-0.3	2.3	-1	/
Cc1cc(Nc2nn(C)c(N)c2C#N)ccc1F	6.7	-4.5	0%	-0.7	0.6	6	0.69
CC(CC(=O)Nc1ncc([N+](=O)[O-])s1)c1ccccc1 (stereo unspecified)	5.1	3.0	-9%	-0.9	2.5	10	0.6
O=C(c1ccccc1)c1nc[nH]c1C(=O)Nc1ccccc1	-4.1	-0.4	2%	0.0	2.3	-2	0.78
CCCC(C)C(=O)Nc1ncc(S(=O)(=O)c2ccc([N+](=O)[O-])cc2)s1 (stereo unspecified)	-3.6	1.0	/	-0.8	3.0	16	0.69
COCCCNC(=O)CN1C(=O)/C(=C/c2ccccc2)Sc2ccccc21	-2.6	5.2	3%	0.7	-0.2	-5	0.68
O=C(Nc1cccc2nsnc12)C1CC(=O)N(c2ccccc2)C1 (stereo unspecified)	1.3	5.8	10%	0.4	-8.9	2	0.76
CCCOc1ccc2nc(C)c(CCC)c(SC(=N)N)c2c1	-1.4	-5.0	/	0.9	4.7	-6	0.66

Grouped by structure: the entries above containing a cyano group.
SMILES	LANA-H2A inh	HNF4A DNA FP	Vif A3G	A1 inh	UCH37 inh	B2AR ag	Ecoli growth
CSC1=C(C#N)C(c2ccccc2Cl)C(C(C)=O)=C(C)N1 (stereo unspecified)	-5.5	1.6	-7%	0.6	-6.9	-3	0.65
Cc1cc(Nc2nn(C)c(N)c2C#N)ccc1F	6.7	-4.5	0%	-0.7	0.6	6	0.69

Next section:
SMILES	LANA-H2A inh	HNF4A DNA FP	Vif A3G	A1 inh	UCH37 inh	B2AR ag	Ecoli growth
C=CCn1c(SCc2nc3ccccc3[nH]2)nnc1-c1ccncc1	2.7	13	-5%	0.9	-6.3	1	0.64
COc1cc(NS(=O)(=O)c2ccc(NC(=O)COc3cccc(C)c3)cc2)nc(OC)n1	-1.5	7.6	-4%	0.0	2.1	0	0.69
NS(=O)(=O)c1ccc(CCNC(=O)CCCn2ncn3c(cc4occc43)c2=O)cc1	1.6	0.4	/	0.2	1.5	-23	0.66
Cc1onc(-c2ccccc2)c1C(=O)N1CCN(c2ncccc2C(F)(F)F)CC1	-0.7	0.3	2%	-0.2	6.2	-1	0.7
O=C(Cn1nc(C(F)F)cc1C1CC1)N1CCCC1	0.6	3.1	/	-0.7	3.2	-1	0.7
CC(=O)Oc1ccc2ccccc2c1C(NC(=O)Cc1ccccc1)c1ccc(Cl)cc1 (stereo unspecified)	-2.1	-0.8	0%	0.6	2.1	7	0.69
O=C(NC1CCN(c2ncccn2)CC1)c1cccc(F)c1	5.2	5.3	/	-0.6	-4.4	-4	0.67
CC(C)Cc1ccc(C(C)C(=O)Nc2ncccn2)cc1 (stereo unspecified)	0.2	-2.5	27%	0.0	3.0	-2	0.7
CCOC(=O)C1CCN(S(=O)(=O)c2ccc(-c3ccc(=O)[nH]n3)o2)CC1	-1.8	-2.0	/	-0.7	-4.4	15	0.71
CC1(C)CC(NC(=O)C(c2ccccc2)c2ccccc2)CC(C)(C)N1	7.6	-2.0	-5%	-0.8	2.4	-1	0.72
CCc1cccc(NC(=O)CSc2nc3c(c(=O)[nH]2)CCCC3)c1	-3.5	/	4%	-0.2	2.5	/	0.71
CCOC(=O)N1CCN(C(=O)c2cc3sccc3n2C)CC1	3.1	3.0	5%	1.3	1.5	-1	0.71
COc1cccc2cc(-c3cc(=O)oc4ccc(O)cc34)oc12	2.3	1.1	0%	-0.6	-1.0	8	0.67
COC(=O)CC(=O)Cc1nc(N)nc(Nc2ccc(C)c(C)c2)n1	2.7	1.5	-1%	0.4	2.3	6	0.64
Cc1c(NC(=O)CCc2ccccc2)cccc1[N+](=O)[O-]	2.1	-4.2	/	0.6	3.1	-8	0.67

Structures listed so far that contain two or more sulfur atoms, in the order listed:
SMILES	LANA-H2A inh	HNF4A DNA FP	Vif A3G	A1 inh	UCH37 inh	B2AR ag	Ecoli growth
O=C(CSc1nnc(NC(=O)c2cccc(F)c2)s1)NC1CCCC1	0.4	-2.1	/	-2.5	-7.8	1	0.71
O=C(Nc1nnc(C2CC2)s1)c1cccs1	2.0	0.9	0%	-5.2	4.2	-2	0.69
O=C1CSC(=S)N1c1cccc(Cl)c1	-10	0.0	2%	-0.3	5.0	15	0.67
CCCC(C)C(=O)Nc1ncc(S(=O)(=O)c2ccc([N+](=O)[O-])cc2)s1 (stereo unspecified)	-3.6	1.0	/	-0.8	3.0	16	0.69

More structures:
SMILES	LANA-H2A inh	HNF4A DNA FP	Vif A3G	A1 inh	UCH37 inh	B2AR ag	Ecoli growth
COc1ccc(C(=O)Nc2cccnc2Cl)cc1OC	3.6	-2.4	/	-0.3	4.6	2	0.68
CC1=C(C(=O)NC2CCCc3c2cnn3-c2cccc(C)c2C)OCCO1 (stereo unspecified)	-1.3	-0.1	/	1.3	2.5	1	0.71
COc1ccc(C(CNC(=O)c2cccc(S(=O)(=O)N3CCCc4ccccc43)c2)N(C)C)cc1 (stereo unspecified)	/	-1.0	/	/	1.3	7	0.61
Clc1ccccc1-c1nnc2sc(-c3ccco3)nn12	6.4	4.0	?	-1.2	1.8	-4	0.67
CCOc1ncccc1C(=O)OCC(=O)N1c2ccccc2CC1C (stereo unspecified)	0.4	1.5	-11%	0.0	0.9	-5	0.67
O=C(c1cc2ccccn2n1)N1CCN(c2cccc(C(F)(F)F)c2)CC1	0.3	1.7	24%	0.5	0.2	-2	0.71
CCCCn1c(-c2ccccc2)nnc1-c1ccccc1	-2.7	-3.1	25%	-0.7	4.2	13	0.72
CCOC(=O)C1(Cc2cccc(OC)c2)CCN(Cc2cccc(OCC)c2O)CC1	-2.2	-2.5	6%	1.1	6.2	10	0.66
CCCCCCCCCCCCN1[C@@H](CC(=O)O)c2cc(F)ccc2S1(=O)=O	-6.1	-5.2	/	-0.4	2.5	-5	/
COc1ccc(S(=O)(=O)N2CCOCC2)cc1NC(=O)COc1ccccc1	-1.4	2.5	3%	1.2	-0.3	-1	0.61
CCCS(=O)(=O)NCCc1csc(-c2ccc(OC)c(OC)c2)n1	-2.4	-2.6	9%	0.6	-45	-2	0.67
CC(=NNC(=O)CSCC(=O)NN=C(C)c1ccccc1)c1ccccc1	/	2.1	-8%	/	3.2	0	0.7
COCc1cc(CN2CCN(CCCc3ccccc3)C(CCO)C2)ccc1OC (stereo unspecified)	4.2	3.0	/	0.1	5.2	-6	0.69
CSc1nc2ccc(Br)cc2[nH]1	-9.4	1.4	20%	-1.4	1.5	3	0.67
Cc1ccc2c(c1)sc[n+]2Cc1ccccc1	1.4	2.1	8%	0.8	0.6	4	0.69
COC(=O)c1c(C(=O)OC)c2n(c1C)CCS2	0.2	-2.0	-4%	0.4	7.1	-3	0.69
Oc1ccc(/C=N/N2CCCCC2)c(O)c1	2.3	-1.8	72%	-2.1	/	-2	/
COC(=O)c1ccc(/C=C/C(=O)OCC(=O)c2ccc[nH]2)cc1	2.6	7.2	-2%	-1.4	1.0	-3	0.71
Cc1nn2c(NCCOCCO)c3c(nc2c1-c1ccccc1)CCC3	0.9	0.6	2%	1.8	0.1	-18	0.71
COC(=O)C(CCSC)NC(=O)/C=C/c1ccc(OC)cc1 (stereo unspecified)	8.7	-0.7	0%	-0.3	3.8	4	0.71
O=C1Nc2ccccc2/C1=C/c1ccccc1Cl	-1.5	-0.5	-9%	0.1	4.7	10	0.66
C[C@@H]1[C@H](O)C[C@@]23COC(=O)C2=CCCC3[C@@]1(C)CCC1COC(=O)C1 (stereo partly specified)	-0.4	-3.0	/	0.7	2.2	6	0.74
CCOc1ncccc1C(=O)OCC(=O)Nc1ncc(C(F)(F)F)cc1Cl	1.6	-0.2	1%&-9%	0.7	-2.3	9	0.73
COC(=O)c1ccccc1NC(=O)Nc1cccc(C)n1	5.6	-0.1	32%	1.0	0.7	0	0.73
Cc1ccc(C)c(OCC(=O)O/N=C(\N)c2ccccn2)c1	0.3	0.2	?	-2.0	0.5	-5	0.71
C=CCn1c(SCc2nc(N)nc(N3CCCCC3)n2)nnc1-c1ccco1	1.7	-0.9	17%	-0.3	-1.3	-2	0.69
CCC(=O)N(C)CCc1cc2c(c(OC)c1/C=N/NC(=O)c1ccccc1O)OCO2	2.3	0.9	/	0.2	/	-7	/
